Source: PubChem BioAssay
ALR H2O2 inh – blocks human ALR sulfhydryl oxidase activity; inhibition, % (no concentration beside the values); purified ALR, DTT oxidation, H2O2 HRP-luminol luminescence; 290,000 tested, 3.8% active;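 active means mean and each replicate at 75% or more; inconclusive means only one of the two met; inactive means neither met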;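 further: stock transfer was 7.5 nL into about 7.5 µL; 0% = neutral wells and 100% = wells with inactivated enzyme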
Target sequence (P55789 whole entry, looked up): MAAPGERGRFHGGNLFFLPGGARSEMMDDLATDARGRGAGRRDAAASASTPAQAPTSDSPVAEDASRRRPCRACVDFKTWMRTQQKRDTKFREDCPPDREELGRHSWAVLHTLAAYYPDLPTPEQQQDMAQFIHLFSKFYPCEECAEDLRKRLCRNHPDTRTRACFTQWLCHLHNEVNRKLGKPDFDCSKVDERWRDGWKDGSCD
Calb FLC – affects C. albicans growth with fluconazole; C. albicans CaCi-2 (fluconazole-resistant clinical isolate) + fluconazole, Alamar Blue growth, 48 h; growth inhibition, % (concentration not given with the values); 300,000 tested, 0.57% active; AID 1979;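 active means most replicates above 75%; inconclusive means exactly half above 75%; inactive means most below 75%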;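 further: all wells also contain fluconazole at 8 µg/ml as a sub-toxic cotreatment; 0% = median of DMSO wells and 100% = median of geldanamycin control wells; wells of about 8 µL received 7.5 nL stock; the first replicate is given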
Beta cell apopt – beta cell apoptosis inhibition; INS-1E cytokine-induced death, ATP luminescence, 48 h; percent of positive-control rescue, neutral wells zero; protection from apoptosis, % (test concentration not listed); 300,000 tested, 0.8% active;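 active means all replicates at 75% or more, or half of them and the mean; inconclusive means half reach 75% but not the mean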;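 further: 0% = cytokine-treated negative control wells and 100% = positive control rescue; higher means more ATP so stronger rescue from cytokine killing; wells of about 40 µL received 100 nL stock; the first replicate is given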
rRNA inh HTS – selective bacterial rRNA inhibition in E. coli; AID 720706; 350,000 tested, 1.6% active; E. coli WT GFP vs humanized-ribosome RFP mutants, fluorescence, 24 h; hits give low values; DMSO median 0, no signal -100; GFP signal change (wild-type ribosome), % (test concentration not listed);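 active means significant combined selectivity score with lowered wild-type GFP, culture density cut under 30%, mutant RFP and density less affected; inactive means any of these conditions unmet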; further: one replicate is shown; some compounds called inactive have numbers as strong as hits
T cruzi repl – blocks replication of Trypanosoma cruzi. AID 1885. T. cruzi beta-gal in NIH3T3, luminescence, 90 h. inhibition, % (test concentration not listed). 300,000 tested, 1.4% active;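 active means mean inhibition across valid replicates above about 55%, limit read from the data; inconclusive means mean below that limit but half or more replicates reach it; inactive means mean below it, under half of replicates reach it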;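 further: signal also drops with host cell toxicity which is not excluded here; 0% = plate median of DMSO wells and 100% = zero luminescence signal; higher percent means less beta-gal luminescence so fewer parasites; stock transfer was 50 nL into about 50 µL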
A1 inh – inhibitors of the anti-apoptotic protein A1, read as caspase activation; caspase activation, % (no concentration beside the values); MEF A1-2A-BIM cells, Caspase-Glo 3/7 luminescence, 3 h; percent of clofoctol response, vehicle zero; 330,000 tested, 0.066% active;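 active means over half of replicate activation scores above 10%, or exactly half above 10 with the replicate mean above 10; inconclusive means replicate mean below 10 yet half the replicates above 10; inactive means over half of replicates below 10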;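 further: wells of about 30 µL received 50 nL stock; many hits fall short of the cut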
Beta2AR agonist – human beta-2 adrenergic receptor agonism by FAP. 340,000 tested, 0.43% active. Am2.2-beta2AR cells, FAP receptor internalization, flow cytometry; reference of the scale not given here. response, % (test concentration not listed);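 active means response above a set limit, near 3 SD of response in nonfluorescent compounds, cut at about 42% in these data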;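 further: stock transfer was 100 nL into about 11 µL; a reference agonist was the positive control; negative values mostly stem from fluorescent compounds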
Target sequence (P07550 whole entry, looked up): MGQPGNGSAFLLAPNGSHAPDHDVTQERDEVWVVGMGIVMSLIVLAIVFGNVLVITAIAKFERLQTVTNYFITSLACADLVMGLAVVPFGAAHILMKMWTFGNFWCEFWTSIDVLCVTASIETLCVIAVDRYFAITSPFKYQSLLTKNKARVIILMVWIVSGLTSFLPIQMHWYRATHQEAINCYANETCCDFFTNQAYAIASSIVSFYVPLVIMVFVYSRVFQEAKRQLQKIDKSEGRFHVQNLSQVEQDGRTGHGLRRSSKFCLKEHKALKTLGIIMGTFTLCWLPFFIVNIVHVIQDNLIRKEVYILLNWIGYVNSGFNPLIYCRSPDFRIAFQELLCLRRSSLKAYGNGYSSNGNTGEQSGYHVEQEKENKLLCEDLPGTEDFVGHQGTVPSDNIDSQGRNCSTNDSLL
LANA-H2A inh – blocks KSHV LANA binding to histone H2A/H2B; Q9QR71; cell-free LANA-H2A/H2B peptide, fluorescence polarization; inhibition, % (test concentration not listed); 320,000 tested, 0.6% active; AID 2629; in the data active means inhibition mostly above about 10%, no sharp cut-off; inactive means mostly below about 6.7%;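 further: stock transfer was 7.5 nL into about 10 µL; 0% = median of vehicle wells and 100% = median of positive control wells; one replicate is shown; the record names a cut of 25% in any replicate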
rRNA inh HTS OD600 – further read-out of rRNA inh HTS, marked with its call; OD600 change, %; measured here: OD600 growth;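 optical density of the mix in the first replicate; 0 = DMSO median and -100 = no signal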
rRNA inh HTS RFP – recorded beside rRNA inh HTS, whose call it bears; RFP signal change, %; measured here: RFP humanized mutant strains;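 first replicate; 0 = DMSO median and -100 = no signal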
The depositor's hits bear a star; u = inconclusive; x = no result given. This is a subset. The share of hits here may be higher or lower than overall.

SMILES,ALR H2O2 inh,Calb FLC,Beta cell apopt,rRNA inh HTS,rRNA inh HTS OD600,rRNA inh HTS RFP,T cruzi repl,A1 inh,Beta2AR agonist,LANA-H2A inh
O=C(CN1C(=O)NC2(CCc3ccccc32)C1=O)c1ccc(F)c(F)c1 (stereo not drawn),x,-3,3,4,-16,-2.4,-16,0.3,-11,-0.3
CC(C)(C)c1ccc(OCCC(=O)Nc2cccc(S(=O)(=O)N3CCCC3)c2)cc1,2,5,-3,-11,-40,1.1,29,1.4,1,1.4
Cc1ccc(C)c(N(CC(=O)N(C)C)S(C)(=O)=O)c1,1,-1,1,x,x,x,-9,0.8,-1,-3.6
CC(Sc1nnc(-c2ccncc2)n1C)C(=O)Nc1ccc(N2CCOCC2)cc1 (stereo not drawn),22,x,-2,x,x,x,x,0.0,-2,2.2
COc1ccc(NC2=Nc3cccc4cccc2c34)cc1,7,-3,1,x,x,x,6,-1.0,-2,-0.3
C=CCn1c(NCCOC)nc2c1c(=O)n(C)c(=O)n2C,x,4,-6,x,x,x,-4,0.9,-2,-2.4
CC(C)(C)NC(=O)C(c1ccncc1)N(C(=O)Cn1nnc(-c2ccc(F)cc2)n1)c1ccccc1F (stereo not drawn),x,-4,x,17,8,2.6,16,x,5,x
Cc1cc(C)cc(OC(=O)COc2ccccc2C)c1,-6,-3,-4,1,4,3.5,-8,u,-5,-1.0
COc1cc(NC(=O)c2ccc(F)cc2)c(OC)cc1NC(=O)CN1CCCCC1,-33,-6,6,-3,-2,-3.9,7,0.6,0,1.0
CCn1cc(/C=C/C(=O)Nc2ccn(Cc3c(F)c(F)c(F)c(F)c3F)n2)cn1,2,-6,x,-16,-5,-1.7,6,-0.4,-26,1.8
COc1ccccc1C/C(N)=N/OC(=O)c1cccc([N+](=O)[O-])c1,3,15,-3,x,x,x,16,3.6,-3,-1.5
CC(=O)OCCN(C)c1cc(SC(C)C)c2nonc2c1[N+](=O)[O-],x,-2,-3,-1,1,4.2,-9,0.5,17,1.2

Arranged by length of the SMILES (lowest first): some entries from above
SMILES,ALR H2O2 inh,Calb FLC,Beta cell apopt,rRNA inh HTS,rRNA inh HTS OD600,rRNA inh HTS RFP,T cruzi repl,A1 inh,Beta2AR agonist,LANA-H2A inh
Cc1cc(C)cc(OC(=O)COc2ccccc2C)c1,-6,-3,-4,1,4,3.5,-8,u,-5,-1.0
C=CCn1c(NCCOC)nc2c1c(=O)n(C)c(=O)n2C,x,4,-6,x,x,x,-4,0.9,-2,-2.4
O=C(CN1C(=O)NC2(CCc3ccccc32)C1=O)c1ccc(F)c(F)c1 (stereo not drawn),x,-3,3,4,-16,-2.4,-16,0.3,-11,-0.3

(cont.)
SMILES,ALR H2O2 inh,Calb FLC,Beta cell apopt,rRNA inh HTS,rRNA inh HTS OD600,rRNA inh HTS RFP,T cruzi repl,A1 inh,Beta2AR agonist,LANA-H2A inh
Clc1ccc(-c2cc(-c3ccccc3)on2)cc1,2,x,-1,x,x,x,x,-3.6,-1,3.9
Cc1cc(C)c(NC(=O)C(C)OC(=O)c2cc(Br)c(Br)s2)c(C)c1 (stereo not drawn),-4,-4,-2,x,x,x,-9,0.5,-3,3.5
Cc1[nH]c2ccccc2c1/C=C(\C#N)C(=O)NC(C)c1ccccc1 (stereo not drawn),-4,-12,-8,x,x,x,9,0.3,-14,0.6
Cc1ccc2cc(CN(C(=O)c3ccco3)c3ccccc3)c(=O)[nH]c2c1,-2,-4,-4,x,x,x,16,0.7,11,1.6
O=C(Nc1ccc2cn[nH]c2c1)c1ccc(S(=O)(=O)N2CCOCC2)cc1,-17,-11,-2,-6,-11,0.1,1,1.1,4,1.5
CCC(C)NC(=O)Cc1ccc(-c2ccccc2)cc1 (stereo not drawn),x,-18,0,x,x,x,62*,-0.3,-8,-2.5
CCOC(=O)C1=c2s/c(=C\c3ccncc3)c(=O)n2C(N)=C(C(=O)OC)C1c1ccncc1 (stereo not drawn),9,12,5,11,15,2.1,6,-0.5,-7,3.0
O=C(COC(=O)CCc1c[nH]c2ccccc12)NC(c1ccccc1)c1ccccc1,-10,26,-8,x,x,x,-2,0.0,4,-6.0
O=C(NCC1CCCO1)c1cc(-c2ccc(Cl)cc2Cl)on1 (stereo not drawn),3,2,1,x,x,x,-1,-0.4,2,5.8
CCOC(=O)C(=CNc1ccc(-c2ccco2)c(Cl)c1)C(=O)OCC,-1,4,6,x,x,x,-25,0.2,-7,0.7
CCn1ccnc1CC1COc2ccccc2O1 (stereo not drawn),-16,x,1,-24,-45,21,x,-0.8,-3,-3.3
O=Cc1cn(Cc2ccccc2)nc1-c1cccnc1,-2,2,1,2,13,-1.1,-8,1.2,7,-0.6
O=S(=O)(c1cccs1)N1CCN(c2ccnc3cc(Cl)ccc23)CC1,-4,-5,x,-33,-34,-7.1,3,0.0,2,-1.5
Cc1ccc(NC(=O)CCn2c(=O)[nH]c3ccsc3c2=O)cc1F,5,18,2,-3,1,1.8,15,-0.5,-18,-1.2
CC1CC(C)CN(C(=O)C(Cc2ccccc2)n2cccc2)C1 (stereo not drawn),10,-8,-1,-9,-7,1.1,9,0.6,-3,0.4
N[C@@H](Cc1ccccc1)C(=O)N1CCC(C(=O)N[C@@H](CCC(=O)O)C(=O)O)CC1,11,7,-1,5,18,1.7,-7,-0.3,-5,-5.9
Cc1ccc(/C=C2\C(=N)N3N=C(CC(=O)N4CCOCC4)SC3=NC2=O)o1,92*,5,-6,-1,-4,2.0,-6,0.4,0,18*
O=C(CSc1nnc(Nc2ccccc2)s1)NCc1cccs1,x,5,-8,x,x,x,1,-0.1,4,-0.7
COC(=O)COc1ccc(S(=O)(=O)Nc2ccccc2SC)cc1,-23,u,-2,x,x,x,-7,-0.6,12,2.0
CC(=O)OCCN1C(=O)c2ccc(-c3nc4ccccc4c(=O)o3)cc2C1=O,33,38,-4,3,2,-0.3,4,-0.5,-7,3.7
CCOC(=O)Nc1cc(=O)c2ccccc2o1,-5,-8,13,x,x,x,-47,0.3,-7,-3.6
CCOc1ccc(NC(=O)COc2ccc(C(=O)NCC3CCCO3)cc2OC)cc1 (stereo not drawn),-7,x,4,7,11,-0.6,x,1.2,-11,-13
Cc1ccc2nc(-c3ccc(NS(=O)(=O)c4ccccc4)cc3)sc2c1,-13,25,3,16,6,-0.4,45,0.3,1,1.7
CCCCc1cc(=O)oc2cc(C)cc(OCC(=O)N3CCC(C(=O)O)(c4ccccc4)CC3)c12,2,1,-8,-13*,9.5*,-4.4*,1,0.4,-2,-4.7
C/C(=N/O)c1ccc(N2C(=O)C3C4C=CC(C3C2=O)C2C3C(=O)N(c5ccc(/C(C)=N/O)cc5)C(=O)C3C42)cc1 (stereo not drawn),-10,u,-2,12,4,0.5,-11,-0.7,x,1.7
CCOC(=O)c1nnn(-c2nonc2-n2cccc2)c1CCl,19,-11,-9,x,x,x,-27,0.3,23,-3.9
COc1ccc(N(CC(=O)NCCSCc2ccc(Cl)cc2)S(C)(=O)=O)cc1Cl,-3,9,-2,-19,-25,-3.2,-8,-0.8,-2,0.2
O=C(NCCCN1CCOCC1)c1onc(CSc2ccncc2)c1C(=O)NCCCN1CCOCC1,-7,-7,-4,14,3,-0.5,-7,0.2,1,-4.3
O=C(Cn1c(-c2ccccc2)noc1=O)N1CCC(Cc2ccccc2)CC1,-3,11,16,-7,-7,17,2,-0.3,-4,7.0
COCCN(C(=O)CCC(=O)Nc1ccccn1)C(C(=O)NC(C)C)c1ccc(C)cc1 (stereo not drawn),-7,-7,-9,6,15,0.9,2,0.8,1,-3.8
COc1cccc(C(=O)COC(=O)C2CC3CCCC(C2)C3=O)c1 (stereo not drawn),1,-1,1,1,1,-0.1,6,-0.9,-3,-3.2
O=C(CSc1ncnc2scc(-c3ccccc3)c12)N1CCN(Cc2ccc3c(c2)OCO3)CC1,-4,-11,1,-24,-18,60,42,0.3,-4,0.4
O=c1c2ccccc2n(Cc2cccc(F)c2)c(=O)n1C1CCCC1,-1,6,-2,x,x,x,13,-0.1,3,-3.6
Cc1ccc2nsnc2c1S(=O)(=O)NCc1ccncc1,-17,-5,-2,x,x,x,-2,-0.1,10,1.1
CCN(c1ccccc1)S(=O)(=O)c1ccc(Cl)c(NC(=O)COC(=O)C2CC2C)c1 (stereo not drawn),-9,45,-2,-7,-8,0.9,6,-0.4,-4,0.7
COC(=O)CCC/C=C1/SCC(NC(=O)c2ccccc2)C1O (stereo not drawn),97*,8,-2,-6,4,2.6,6,-0.2,2,0.6
O=C(CCc1ccc(S(=O)(=O)N2CCOCC2)cc1)Nc1ccc(N2CCOCC2)cc1,56,1,-1,x,x,x,-3,1.2,-11,4.3
COc1ccccc1/C=C/c1nc(S(=O)(=O)c2ccccc2)c(NCCN(C)C)o1,16,x,-2,0,-14,-2.4,22,-0.1,11,-5.6
CCOc1ccc2nc(NS(C)(=O)=O)sc2c1,-15,4,3,x,x,x,-7,-1.7,1,1.9
COn1c(=O)c(=O)n(OC)c2ccccc21,2,-3,0,x,x,x,-26,-0.5,0,-0.7
O=C(CN1CCCCC1CO)c1ccc(OC(F)F)cc1 (stereo not drawn),0,3,-4,12,17,1.3,-3,0.4,13,2.6
COc1cccc(-c2nnc(SCC(=O)NC3CCS(=O)(=O)C3)n2C)c1 (stereo not drawn),-1,x,-5,-3,-1,-0.5,x,-0.2,-4,-2.0
CCCCN(C(=S)Nc1ccccc1)C1CCS(=O)(=O)C1 (stereo not drawn),-9,0,-4,x,x,x,-5,-0.6,-11,6.3
CCc1ccc(CNC(=O)CCc2nnc(CCc3ccc(OC)cc3)o2)nc1,-4,2,-7,7,-2,1.4,1,0.5,-2,-0.7
CSc1nc(=O)n2cc(C)ccc2n1,-3,16,2,17,9,-4.4,4,-0.1,2,3.2
COC(=O)C1=C(C)N(c2cccc(C(C)=O)c2)C(=O)C1,0,-7,-1,x,x,x,3,0.2,6,0.9

Sorted by the number under Beta2AR agonist (highest first): 4 from the list above.
SMILES | ALR H2O2 inh | rRNA inh HTS | rRNA inh HTS OD600 | rRNA inh HTS RFP | Beta2AR agonist | LANA-H2A inh
O=C(CN1CCCCC1CO)c1ccc(OC(F)F)cc1 (stereo not drawn) | 0 | 12 | 17 | 1.3 | 13 | 2.6
COC(=O)C1=C(C)N(c2cccc(C(C)=O)c2)C(=O)C1 | 0 | x | x | x | 6 | 0.9
COn1c(=O)c(=O)n(OC)c2ccccc21 | 2 | x | x | x | 0 | -0.7
O=C(CCc1ccc(S(=O)(=O)N2CCOCC2)cc1)Nc1ccc(N2CCOCC2)cc1 | 56 | x | x | x | -11 | 4.3
